# High-throughput results deposited in PubChem by SRMLSC.
# H5N1 CPE: antiviral screen in MDCK cells, H5N1 avian flu. 96,000 compounds, 0.07% hits. inhibition, % at 50 µM. cytopathic effect, luminescence, 72 h; hits give high values; no value below 0 was filed and about half of the inactive calls have no number; reference of the scale not given here; in the data active = inhibition above about 25%
# The depositor's hits bear a star; i = inactive. This is a subset, so the mix of outcomes need not match the whole.
SMILES,H5N1 CPE
Cc1ccc(-n2c(Cn3nc(C(F)(F)F)cc3C)n[nH]c2=S)cc1,0.1
O=C(c1cc2c(=O)oc3ccccc3c2s1)N1CCOCC1,i
NC(=O)c1sc2nc3c(c(-c4ccc(Cl)cc4)c2c1N)CCCC3,6.3
CCN(CC)CCCNC(=O)Cn1ncc2c(=O)oc3ccc(C)cc3c21,0.7
CC(C)CC(=O)Nc1cc([N+](=O)[O-])ccc1Cl,i
COCC(=O)Nc1ccc(S(=O)(=O)Nc2cc(C)nc(C)n2)cc1,i
COc1ccc(C(NC(=O)/C=C\c2ccco2)c2ccc(OC)c(OC)c2)cc1 (stereo unspecified),i
CCOC(=O)N1CCN(C(=O)c2ccc3c(c2)sc2nc(-c4ccccc4)cn23)CC1,0.1
O=C(O)C1CCCCC1C(=O)Nc1cnn(Cc2ccccc2)c1 (stereo unspecified),i
O=C(NCc1cn2ccsc2n1)Nc1cccc(Cl)c1,0.9
COc1ccccc1CC(=O)Nc1ccc(-c2noc(COc3cccc(C)c3C)n2)cc1,0.8
N#CC1=C(Nc2ccccc2)SC=C(c2ccc(F)cc2)N=C1N1CCOCC1,i
CC(C)(Cl)C1Cc2cc3ccc(=O)oc3cc2O1 (stereo unspecified),i
O=C(COC(=O)C1(c2ccccc2)CC1)N1CCN(c2ccc(F)cc2)CC1,0.3
CCN(CC)CCNC(=O)c1ccc(NC(=O)c2ccc(Cl)c(S(=O)(=O)Nc3ccccc3OC)c2)cc1,i
O=C(NCc1cccs1)C1CCN(c2nc3ccccc3o2)CC1,i
O=C(NCc1ccco1)c1ccccc1-c1ccc(C(F)(F)F)cc1,i
Cc1c(NC(=O)C(C)Sc2ccccc2)c(=O)n(-c2ccccc2)n1C (stereo unspecified),0.2
CCOCC(=O)Nc1cc(C(=O)Nc2cccc(C)c2C)ccc1Cl,i
CCC(=O)n1nc(-c2ccccc2)nc1NCc1ccccc1,i
COc1ccc(C2N(C(=O)c3ccccc3)CCN2C(=O)c2ccc(C)cc2)cc1 (stereo unspecified),0.2
COC(=O)c1nnn(-c2ccccc2)c1N,i
O=C(Nc1ccccc1)N1C2CCC1CC(O)(c1cccnc1)C2 (stereo unspecified),i
Cc1ccc(NC(=O)C(C)N2C(=O)C3CC=C(Cl)CC3C2=O)cc1 (stereo unspecified),0.2
CN1CCN(C(=O)Cn2c(C(F)(F)F)nc3ccccc32)CC1,0.2
O=C(NCc1ccccc1)c1cccc(NC(=O)c2ccco2)c1,i
O=C(c1ccccc1)N(CCN1CCOCC1)C1(C(=O)Nc2ccccc2)CCCCC1,1.0
CN(C(=O)CC(NC(=O)c1ccccc1)(c1ccccc1)c1ccccc1)c1ccccc1,0.4
FC(F)(F)c1nnc2c(Sc3ccccc3)nc3ccccc3n12,1.3
CC(=O)Nc1ccc(NC(=O)c2ccccc2N(C)S(C)(=O)=O)cc1,1.5
C=CCn1c(SCc2csc(C)n2)nc2sc3c(c2c1=O)CCCCC3,0.0
COC(=O)c1cc(Br)c(=O)n(Cc2ccncc2)c1,0.5
CCCc1cc(=O)oc2cc(OCC(=O)N3CCc4ccccc43)ccc12,i
COCC(=O)N/N=C/c1ccc(Sc2nc3ccccc3s2)o1,0.3
CCOC(=O)c1sc(NC(=O)c2ccc(S(=O)(=O)N(C)C)cc2)cc1C,0.8
CC(C)NC(=O)C(=O)NCCN1CCN(S(=O)(=O)c2ccc(Cl)cc2)CC1,0.4
COC(=O)c1cc(OC)c(OC)cc1NC(=O)C1CCC(=O)N1S(=O)(=O)c1ccc(C)cc1 (stereo unspecified),0.6
Cc1oc(-c2ccc(Cl)cc2)nc1CN1CCC(C(=O)NCc2cccnc2)CC1,i
c1ccc2c(-n3cccn3)cccc2c1,i
Cc1ccccc1C(=O)NC1CC(C)(C)NC(C)(C)C1,i
C=CCn1c(=N)c(C(=O)NCCCOC)cc2c(=O)n3cc(C)ccc3nc21,0.6
O=C(CSc1nc2c(sc3ccccc32)c(=O)n1Cc1ccco1)NCC1CCCO1 (stereo unspecified),0.1
Cc1cc2cc(CNC(=O)CC(C)C)ccc2n1C,0.1
CCNC(=O)CN(c1ccc(Cl)cc1)S(=O)(=O)c1ccccc1,1.2
COc1ccc(CC(=O)OCC(=O)Nc2c(C)n(C)n(-c3ccccc3)c2=O)cc1,i
CCOC(=O)c1cnc(SCC(=O)Nc2cccc(OC)c2)nc1N,i
CCOC(=O)c1nnc(-c2ccccc2)nc1NCc1ccc(Cl)cc1,i
CCC(=O)Nc1ccc(C(=O)Cn2nc(C(=O)O)c3ccccc3c2=O)cc1,0.2
Cc1cc(NC(=O)CCCC(=O)N(CC(=O)NC2CCCCC2)c2ccccc2)no1,i
O=C(Nc1nc2ccccc2n1CCN1CCCCC1)c1ccco1,3.0
# (further entries)
SMILES,H5N1 CPE
COc1cccc(OC)c1OCCCCN1CCCC1,1.6
CCN(CC)S(=O)(=O)c1cccc(-c2nnc(SCC(=O)c3cc(C)n(C)c3C)o2)c1,2.3
CCCS(=O)(=O)NCCc1cc2c(OC)ccc(OC)c2[nH]c1=O,0.1
O=C(C1CCC(=O)N1Cc1cccnc1)N1CCN(c2ccc(F)cc2)CC1 (stereo unspecified),1.6
COc1cccc(Cn2c(=S)[nH]c3ccc(N4CCOCC4)cc3c2=O)c1,0.8
COc1nnc(OC)c2ccccc12,i
COCCCNC(=S)NC1CC2CCCC(C1)N2Cc1ccco1 (stereo unspecified),0.8
Cc1ccc(NC(=O)c2cc(-c3cccs3)on2)cc1,i
CCn1c(SCC(=O)c2cccs2)nnc1-c1ccco1,i
COc1ccccc1OCc1ccc(C(=O)N2N=C(C(F)F)CC2(O)C(F)F)o1 (stereo unspecified),i
O=C(O)C1CCCCC1C(=O)OCCCCOC(=O)C1CCCCC1C(=O)O (stereo unspecified),i
CCc1ccc(C2CC(c3ccco3)=NN2S(C)(=O)=O)cc1 (stereo unspecified),i
O=C(Nc1ccc2c(c1)C(=O)N(C1CCCCC1)C2=O)C1CCCO1 (stereo unspecified),i
OC(COc1c(Cl)cc(Cl)cc1Cl)CN1CCCCC1 (stereo unspecified),i
CCCCn1c(SCC(=O)N2CCC(C(=O)OCC)CC2)nc2cc(S(N)(=O)=O)ccc21,0.3
Cn1ccnc1SC(=O)N1c2ccccc2Sc2ccccc21,i
COc1cc(NS(=O)(=O)c2ccc(NC(=O)COc3ccccc3C)cc2)nc(OC)n1,0.4
FC(F)(F)c1cc(-c2ccc(Cl)cc2)nc(NCc2cccnc2)n1,1.0
CN(C)S(=O)(=O)c1ccc(N2CCCC2)c(C(=O)Nc2ccc(N3CCOCC3)cc2)c1,i
O=C(Nc1ccc2oc(-c3cccnc3)nc2c1)c1ccco1,0.8
Cc1nc2cc(-c3cccc(F)c3)nn2c(N2CCN(C(=O)c3ccco3)CC2)c1C,2.5
CC1(C)CC(=O)C2=C(C1)Nc1[nH]n(-c3ccccc3)c(=O)c1C2c1ccc2c(c1)OCO2 (stereo unspecified),2.3
CCOC(=O)c1ccc(Cn2cnc3ccccc3c2=O)cc1,0.2
CO/N=C/NC(=O)c1c(OC)ccnc1Oc1ccc(F)cc1,i
CN1CCN(C2=C(Cl)C(=O)N(c3cccc(Cl)c3)C2=O)CC1,i
CN(C)/C=C1/N=C(c2ccccc2)OC1=O,3.2
CCSC1=C(C#N)C(c2ccccc2OC)CC(=O)N1 (stereo unspecified),i
Cc1ccccc1C(=O)N1CCC(C(=O)O)CC1,i
CCOC(=O)N1CC=C2C(C#N)=C(N)C(C#N)(C#N)[C@H](c3ccccc3OCC)[C@H]2C1,0.7
Cc1nc(NC(C)c2ccccc2)c2oc3ccccc3c2n1 (stereo unspecified),1.4
O=C1C2C3CC(C(Br)C3Br)C2C(=O)N1c1ccccn1 (stereo unspecified),0.7
CCCc1cc(C(=O)Nc2cc(C)nn2-c2ccccc2)no1,0.5
COc1ccc(Nc2nccc3c2nnn3C)cc1,5.5
N#Cc1nc(COc2ccc(Br)cc2)oc1NCCCn1ccnc1,0.4
OC(Cn1cncn1)(c1ccccc1)c1ccccc1,0.5
CNC(=O)CCC(=O)Nc1ccc(C(=O)OC)cc1,1.5
COC(=O)C(NC(C)=O)(Nc1nc2c(C)cc(C)cc2s1)C(F)(F)F (stereo unspecified),i
Cc1cnc(NC(=O)CN2CCN(c3ccccn3)CC2)s1,3.4
N#CCn1c(C2CCCCC2)nc2ccccc2c1=O,6.3
Cc1ccc2oc(-c3ccc(NC(=O)CC(C)C)cc3)nc2c1,0.4
Cc1ccc(S(=O)(=O)CC(=O)NC2CC2)cc1,1.2
N#CC(C#SN)=C1CCCCC1,i
COC(=O)c1sccc1NC(=O)CN(C)NS(=O)(=O)c1ccc(Cl)cc1,3.2
CC1(C)Cc2noc(N)c2C(C)(C)N1OC(=O)c1scc2c1OCCO2,0.4
CCCC(=O)Nc1nc(-c2ccc3c(c2)CCN3S(C)(=O)=O)cs1,i
O=C(NCc1cccnc1)c1cccc(C(F)(F)F)c1,0.5
O=C(NC1CCCC1)C(c1ccccn1)N(C(=O)c1csnn1)C1CC1 (stereo unspecified),0.8
Cc1cccc(OCCCC(=O)NC(C)C)c1,i
O=C(CN1CCN(CCC(=O)Nc2ccccc2F)CC1)Nc1ccc(Cl)cc1,i
CC(=O)Nc1cccc(Oc2nc(C)cc(C)c2C#N)c1,i
# New compounds follow
SMILES,H5N1 CPE
O=C(CCn1cccc1)NCCc1ccc(Cl)cc1,1.7
CCOC(=O)/C=c1\s/c(=C\c2c(OC)ccc3ccccc23)c(=O)n1CC(=O)NCC1CCCO1 (stereo unspecified),i
O=C(Nn1cnnc1)c1ccccc1-c1ccccc1,0.6
CCCCOC(=O)Nc1ccc(S(=O)(=O)Nc2nc(C)cc(C)n2)cc1,i
O=C(Nc1nnc(COc2ccccc2)s1)c1ccco1,i
Cc1cc(C)n(-c2ccc(C(=O)OCn3nnc4ccccc4c3=O)cc2)n1,i
CCOC(=O)c1[nH]c(C)c(C(=O)N(C)Cc2ccccc2)c1C,0.3
CC(OC(=O)C1=COCCO1)C(=O)Nc1ccc(Oc2ccccc2)cc1 (stereo unspecified),i
COc1ccc(N2CCN(C(=O)Cc3nn(C)c(=O)c4ccccc34)CC2)cc1,i
CCOc1ccccc1N(CC(=O)Nc1ccc(C)cc1)S(C)(=O)=O,i
Cc1[nH]nc(SCC(=O)N2CCCCC2)c1[N+](=O)[O-],0.1
COc1ccc2oc(-c3ccc(C)c(NC(=O)CSc4ccc(Cl)cc4)c3)nc2c1,i
Cn1c(O)c(C=NCCCNC2CCCCC2)c(=O)n(C)c1=O,i
c1ccc(-c2nnc(SCc3nc4ccccc4[nH]3)n2Cc2ccco2)cc1,i
COc1cc(C2NCc3ccccc3-n3cccc32)ccc1O (stereo unspecified),1.0
Cc1oc(-c2ccc(Cl)cc2)nc1CN1CCCC(C(=O)N2CCN(C(=O)c3ccco3)CC2)C1 (stereo unspecified),0.2
COCCSc1ccccc1C(=O)Nc1nnc(C)s1,1.3
Cc1csc(SCc2ccc(C(=O)O)cc2)n1,0.5
CCOc1ccccc1Nc1nc2ccccc2[nH]1,i
c1ccc(CSc2ncnc3c2sc2nc(N4CCOCC4)c4c(c23)CCCC4)cc1,i
Nc1nc(SCC(=O)N2CCCc3ccccc32)[nH]c(=O)c1-c1ccccc1,0.4
Cn1nc(C(=O)Nc2sccc2C(N)=O)ccc1=O,6.2
CN(C)C(=O)N1CCCC(C(=O)NCCc2ccccc2)C1 (stereo unspecified),0.2
Cc1cc(C)nc(N2CCN(c3nnnn3-c3ccccc3)CC2)n1,1.6
COc1ccc(C)cc1Cn1c(S(C)(=O)=O)nc2ccccc21,4.3
CC1CCN(C(=O)COc2ccccc2F)CC1,0.6
CC(=O)ON1C(C)(C)Cc2noc(N)c2C1(C)C,i
CS(=O)(=O)N1Cc2ccccc2CC1C(=O)OCC(=O)Nc1ccc2ccccc2c1 (stereo unspecified),2.3
O=C(c1ccc(S(=O)(=O)Nc2ccc(F)cc2)cc1)N1CCN(C(=O)c2ccco2)CC1,2.8
COc1ccc(-n2c(CCc3ccccc3)nnc2SCC(=O)NCc2ccccc2)cc1,i
Cc1ccc(C(=O)NC(=S)Nc2ccccc2C(F)(F)F)cc1C,i
C=CCn1c(CCC(=O)Nc2ccc(C)c(Cl)c2)nnc1SCC(=O)Nc1ccccc1C,i
CCCc1cc(=O)n2[nH]c(NCc3cccs3)nc2n1,i
CCC(CC)n1[nH]c(=O)cc1N,i
COc1ccc(OCC(=O)NNC(=O)c2cccs2)cc1,0.9
Cc1cc(C(=O)Nc2c(C)n(C)n(-c3ccccc3)c2=O)c2ccccc2n1,i
